RGS16-Gao: RGS16-Galphao interaction regulator (human); 220,000 compounds, 0.38% hits; binding response (% of control), % at 10 µM; AID 1441; O15492+P09471; bead-based flow cytometry RGS16-Galphao binding, fluorescence; actives lie on both sides;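 active = below 25% or above 175%, edge rows of some plates excepted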;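 note: Galphao activated by GDP with aluminum fluoride before binding; 100% = wells without compound and 0% = beads without RGS; some results beyond the cut were filed as inactive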
Target sequence (O15492 whole entry, looked up): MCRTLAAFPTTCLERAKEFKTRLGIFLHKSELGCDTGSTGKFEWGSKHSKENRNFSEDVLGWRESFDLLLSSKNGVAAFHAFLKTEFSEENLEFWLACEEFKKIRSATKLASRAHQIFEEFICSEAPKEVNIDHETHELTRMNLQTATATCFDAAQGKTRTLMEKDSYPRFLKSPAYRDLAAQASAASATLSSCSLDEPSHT
Target sequence (P09471 whole entry, looked up): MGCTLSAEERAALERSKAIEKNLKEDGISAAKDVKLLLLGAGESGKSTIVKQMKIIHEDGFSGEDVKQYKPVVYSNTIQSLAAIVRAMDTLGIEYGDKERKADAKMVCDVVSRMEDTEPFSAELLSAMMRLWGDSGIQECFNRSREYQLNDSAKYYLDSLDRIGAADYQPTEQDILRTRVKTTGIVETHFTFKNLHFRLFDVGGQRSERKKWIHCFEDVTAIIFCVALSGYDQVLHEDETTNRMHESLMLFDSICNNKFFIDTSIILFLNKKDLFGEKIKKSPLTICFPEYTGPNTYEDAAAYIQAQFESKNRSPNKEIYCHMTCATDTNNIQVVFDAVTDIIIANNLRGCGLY
HSV augment: increases HSV replication in cells; maximum fold increase; AID 1956; HSV replication augmentation in cells, fold increase; 220,000 compounds, 0.005% hits;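 active = peak rise of 1.5-fold or more in the series; inconclusive = self-fluorescent or not available for retest; tested in PC3 cells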;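 note: first round at 10 µM; read as green reporter fluorescence; hits show the peak of a series up to 25 µM; 1 = signal of infected wells without compound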
GALR2 ag: agonists of human galanin receptor 2 (GALR2) | activation, %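 (tested at 5 µM)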 | O43603 | 140,000 compounds, 0.48% hits | GALR2-expressing cells, agonist activation read-out;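 active = above mean plus 3 SD of all compounds, about 5% in these data, not always enough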;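 note: 0% = vehicle buffer wells and 100% = reference agonist at full effect; tested in CHO reporter cells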
Target sequence (O43603 whole entry, looked up): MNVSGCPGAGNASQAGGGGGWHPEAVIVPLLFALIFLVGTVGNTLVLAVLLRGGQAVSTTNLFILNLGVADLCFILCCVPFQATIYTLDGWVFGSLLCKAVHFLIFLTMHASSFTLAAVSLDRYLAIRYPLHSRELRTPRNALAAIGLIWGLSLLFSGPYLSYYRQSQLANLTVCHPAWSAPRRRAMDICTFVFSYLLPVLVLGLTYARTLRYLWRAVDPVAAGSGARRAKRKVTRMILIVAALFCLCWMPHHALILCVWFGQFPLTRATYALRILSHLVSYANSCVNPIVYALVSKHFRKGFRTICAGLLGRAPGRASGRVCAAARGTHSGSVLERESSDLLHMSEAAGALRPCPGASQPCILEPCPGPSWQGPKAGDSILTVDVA
PKD1 kinase inh: blocks activity of human protein kinase D1; Q15139; PKD1 kinase fluorescence polarization assay; inhibition, %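 (about 10 µM by stock and volumes)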; 200,000 compounds, 0.056% hits;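 active = inhibition of 50% or more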;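 note: controls were vehicle for no effect and a reference inhibitor for full effect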
Insulin prom inh: TRM-6 insulin promoter activity inhibition; TRM-6 cells (human fetal islet line), insulin promoter-eGFP reporter, imaging; reporter expression induced with tamoxifen; inhibition, % at 2 µM; 130,000 compounds, 0.9% hits; AID 1273;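 active = inhibition above the mean plus 3 SD, with well images judged a real hit on visual review, cut at about 60% in these data, passing the limit was not always enough; inconclusive = inhibition over the cutoff but images rejected on review; inactive = inhibition not above the cutoff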
Insulin prom inh cell count: also measured in Insulin prom inh; calls as there; normalized cell count, %; measured here: cell count, toxicity; reference of the scale not given here;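 cells exposed to compound for 48 h; stained nuclei by imaging scaled within each plate; lower means fewer cells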
HSV augment primary fold: recorded beside HSV augment, whose call it bears; fold increase; compound at 10 µM; measured here: primary screen fold increase 10 uM; tested in PC3 cells;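 GFP signal in the first replicate; 1 = infected wells without compound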
The depositor's hits bear a star; i = inactive; u = inconclusive; x = not tested or not shown; & = joins results of further samples.

no.	Compound	HSV augment	RGS16-Gao	HSV augment primary fold	Insulin prom inh	GALR2 ag	Insulin prom inh cell count	PKD1 kinase inh
1	CC1(C)CC2(CC(c3cccs3)c3cc(Cl)c(O)cc3O2)NC(=S)N1 (configuration not stated)	x	98	x	x	-1.3	x	-5
2	O=C(c1cnsn1)N1CCN(c2ccccn2)CC1	i	108	0.97	10	-0.2	82	-9
3	CCC(C)NCC(O)(c1ccc(Cl)cc1)c1ccc(Cl)cc1 (configuration not stated)	i	107	0.91	-37	x	100	1
4	CC(=O)Nc1ccc(NC(=O)CN(C)CCC#N)cc1	i	100	1	x	-1.8	x	-16
5	COc1cc(C(=O)NCC(=O)N/N=C/c2cccs2)cc(OC)c1OC	i	98	0.9	37	-0.3	140	-3
6	CC1=C(C(=O)Nc2ccc(Cl)cc2)C(c2ccncc2)C(C#N)=C(SCC(N)=O)N1 (configuration not stated)	i	104	0.87	x	-3.1	x	1
7	COc1ccccc1/C=C/C=C1\Oc2c(ccc(O)c2CN(C)C)C1=O	u	106	x	x	x	x	x
8	C/C(=C\C(=O)c1ccccc1)Nc1cccc(O)c1	i	94	0.92	x	-1.1	x	10
9	Cc1c(NC(=O)C(C)OC(=O)[C@@H](NC(=O)c2ccccc2)C(C)C)c(=O)n(-c2ccccc2)n1C (some centres not stated)	i	105	1	-5	-3.8	106	-6
10	CCc1c(C)[nH]n(-c2ccc(Oc3ccccc3)c(S(=O)(=O)O)c2)c1=O	i	103	0.84	44	-1.8	96	2
11	CCN(CC)CCCOC(=O)c1ccc(OC)cc1O	i	97	1.3	x	x	x	-7
12	Cc1c(Br)c([N+](=O)[O-])nn1CC(=O)NCc1ccccc1	i	99	0.89	x	x	x	-1
13	Cc1oc(/C=N/NC(=O)CN(c2ccccc2Br)S(C)(=O)=O)cc1Br	i	102	1	20	-0.2	107	5
14	O=C(Nc1nc(-c2cc(Cl)sc2Cl)cs1)c1cccs1	i	104	0.97	-15	-1.4	79	2
15	CC(C)N(Cc1nc(-c2ccc(Cl)cc2)no1)C(=O)C(c1ccccc1)c1ccccc1	i	96	0.84	-14	-1.6	52	1
16	Cc1ccc(CN(C)C(=O)C2CCCN2C(=O)c2cccs2)o1 (configuration not stated)	i	97	1.1	x	-3.0	x	10
17	O=C(NCCN1CCN(c2ccccc2)CC1)C1CCN(S(=O)(=O)N2CCOCC2)CC1	i	103	0.94	0	-2.5	197	-7
18	O=C1CC(N2CCN(C(c3ccccc3)c3ccccc3)CC2)C(=O)N1Cc1ccc(N2CCCC2=O)cc1 (configuration not stated)	i	90	0.79	-3	-1.0	181	-7
19	CC(=O)Nc1cccc(C(=O)OC(C(=O)c2ccc(C)cc2)c2ccccc2)c1 (configuration not stated)	i	111	0.91	45	-1.5	79	-2
20	N#Cc1ccc(OCC(=O)NC2=NCCS2)cc1	i	101	0.94	x	x	x	8
21	CC1=CC(=O)C=C(C)C1=NOC(=O)c1cccc([N+](=O)[O-])c1	i	94	1	44	7.8	122	1
22	CC(C)Cn1cnc2c(c1=O)c1nc3ccccc3nc1n2Cc1ccc2c(c1)OCO2	i	100	1	-7	-0.8	124	7
23	CCOP(=O)(CN(CC)C(=O)c1ccccc1Br)OCC	i	101	0.99	x	x	x	x
24	CCc1ccc(NC(=O)N(C2CCCCC2)C(C)c2cccnc2)cc1 (configuration not stated)	i	-1	0.96	23	-1.0	163	0
25	O=C(Cc1ccc(-c2ccccc2)cc1)NC1CCCC1	i	107	1	x	x	x	7

Sorted by the number under HSV augment primary fold (ascending): 3 from the list above.
entry | Compound | HSV augment | RGS16-Gao | HSV augment primary fold | GALR2 ag | PKD1 kinase inh
19 | CC(=O)Nc1cccc(C(=O)OC(C(=O)c2ccc(C)cc2)c2ccccc2)c1 (configuration not stated) | i | 111 | 0.91 | -1.5 | -2
14 | O=C(Nc1nc(-c2cc(Cl)sc2Cl)cs1)c1cccs1 | i | 104 | 0.97 | -1.4 | 2
4 | CC(=O)Nc1ccc(NC(=O)CN(C)CCC#N)cc1 | i | 100 | 1 | -1.8 | -16

By substructure, the compounds so far containing a thiophene ring, fused or not (4)
no.	Compound	HSV augment	RGS16-Gao	HSV augment primary fold	Insulin prom inh	GALR2 ag	Insulin prom inh cell count	PKD1 kinase inh
1	CC1(C)CC2(CC(c3cccs3)c3cc(Cl)c(O)cc3O2)NC(=S)N1 (configuration not stated)	x	98	x	x	-1.3	x	-5
5	COc1cc(C(=O)NCC(=O)N/N=C/c2cccs2)cc(OC)c1OC	i	98	0.9	37	-0.3	140	-3
14	O=C(Nc1nc(-c2cc(Cl)sc2Cl)cs1)c1cccs1	i	104	0.97	-15	-1.4	79	2
16	Cc1ccc(CN(C)C(=O)C2CCCN2C(=O)c2cccs2)o1 (configuration not stated)	i	97	1.1	x	-3.0	x	10

Later entries:
no.	Compound	HSV augment	RGS16-Gao	HSV augment primary fold	Insulin prom inh	GALR2 ag	Insulin prom inh cell count	PKD1 kinase inh
26	Cc1c(Cl)cnc(NC(=O)CSc2nncs2)c1Cl	i	97	0.89	-42	-0.6	120	-4
27	Cn1c(=O)c(=O)n(C)c2cc(S(=O)(=O)N3CCOCC3)ccc21	i	102	0.97	x	-2.2	x	-19
28	CCOC(=O)c1cnc(SCC)[nH]c1=O	i	108&104	1.1&1	1	-0.1	92	-15
29	COc1ccc(Cl)cc1C(=O)NNC(=O)CSc1nnc2ccccn12	i	104	1	-48	x	84	4
30	CCOC(=O)c1c(C)n(C)c2c(C)cc(O)c(OC(C)=O)c12	i	101	0.99	-29	1.4	125	-3
31	COc1cccc(CNc2nc3nc(C)cc(=O)n3[nH]2)c1	i	111	1	-40	-0.6	127	-3
32	CCOC(=O)c1sc(NC(=O)C(CC)Sc2nnc3c4ccccc4n(C(C)C)c3n2)nc1C (configuration not stated)	i	99	0.92	x	-2.9	x	-8
33	C=CCNC(=S)NN=C1CCCCCCC1	i	104	0.98	x	x	x	3
34	S=c1[nH]cnc2sc(Nc3ccccc3)nc12	i	133	0.84	x	x	x	x
35	COc1ccc(NS(=O)(=O)c2ccc3nc(COc4ccc5ccccc5c4)[nH]c3c2)cc1	i	90	0.85	x	-1.2	x	-1
36	O=C(COC(=O)CCSc1ccc(Cl)cc1)NCc1ccco1	i	103	0.94	-47	x	141	-1
37	COc1cccc(NC(=O)CSc2nc3ccsc3c(=O)n2-c2ccc(C(=O)O)cc2)c1	i	100	1	x	x	x	-5
38	Cc1ccc(-n2c(SCC(=O)Nc3ccc(N4CCOCC4)cc3)nc3ccccc3c2=O)cc1	i	93	1.2	x	-1.2	x	-4
39	CC(C)Cn1c(N)c(C(=O)CSc2ccc3c(c2)OCCO3)c(=O)n(C)c1=O	i	103	0.87	-168	-2.2	104	2
40	CC(C)OC(=O)/C(=C/c1ccco1)c1ccccc1	i	99	1.1	x	x	x	x
41	COc1cc(OC)c2c(-c3ccccc3)cc(=O)oc2c1C(CCN1CCCCC1)c1ccc2c(c1)OCO2 (configuration not stated)	i	102	1	x	x	x	x
42	NC(=O)c1ccccc1NC(=O)CS(=O)(=O)Cc1ccccc1	i	102	1	16	-0.9	134	-13
43	Cc1nn(C)c(C(=O)NNC(=S)NC2CCCCC2)c1Br	i	101	1.1	x	x	x	-4
44	Cc1ccc(OCCC(=O)Nc2ccc(F)c(F)c2)cc1	i	108	0.77	-23	-3.2	37	-5
45	CCCCCCOc1ccc(/C(N)=N/O)cc1	i	102	0.88	x	-2.8	x	4
46	CCOC(=O)c1sc(NC(=O)c2ccccc2)cc1C	i	152	0.64	8	-2.2	148	-7
47	COCCNC(=O)CSc1nc2ccccc2c(=O)n1CCC(=O)NCCc1ccc(OC)c(OC)c1	i	114	0.91	-125	x	30	-2
48	CCC1(C)NC(=O)N(CC(=O)Nc2sc3c(c2C(=O)OC)CCCCC3)C1=O (configuration not stated)	i	103	1.1	x	-0.2	x	3
49	COc1ccc(CN2CCN(Cc3cccc4nonc34)CC2CCO)c(C)c1C (configuration not stated)	i	111	0.93	x	x	x	-5
50	Cc1cc(Cl)c(OCCCSc2nc(C)cc(=O)[nH]2)c(Br)c1	i	102	0.95	33	-1.7	130	-4
51	N/C(=N\OC(=O)c1cccc(F)c1)c1ccccc1	x	99	x	29	-2.1	115	7
52	O=C(NNC(=O)c1ccc([N+](=O)[O-])cc1)c1ccncc1	i	95	0.85	17	-0.7	83	-4
53	Cc1cc([N+](=O)[O-])c(C)cc1-c1ccc(/C=N/NC(=O)c2cccnc2)o1	i	95	1.3	x	x	x	-5
54	CCOc1ccc(CCN2CN(C3CCCCC3)CNC2=S)cc1OCC	i	96	0.96	x	x	x	x
55	Fc1ccc(OCc2nnc(SCCN3CCOCC3)o2)cc1	i	102	1	12	-3.1	149	0
56	S=C(NCCC1=CCCCC1)NCc1ccco1	i	98	1.2	x	x	x	-1
57	O=C(Nc1ccc(N2CCN(C(=O)c3cccs3)CC2)c(Cl)c1)c1ccco1	i	89	0.88	23	-0.3	96	-6
58	COc1ccccc1-c1nnc(SCC(=O)O)n1-c1ccc(C)cc1	i	107	1	-11	x	156	-1
59	c1cc2c(nn1)CCc1nonc1-2	i	124	1	x	1.1	x	-14
60	COc1ccccc1CN1CCN(C(=O)c2ccncc2)CC1	x	102	x	x	-1.3	x	-8
61	CCCCC(=O)N=c1sc2cc(S(C)(=O)=O)ccc2n1C	x	91	x	0	0.5	141	1
62	CCOc1ccccc1NC(=O)Cc1coc2ccc(C)cc12	i	101	0.85	x	x	x	2
63	COc1ccc(N(C)C(=O)c2onc3c2CCCC3)cc1	i	56	1.1	x	-0.2	x	6
64	c1ccc(-c2nc(N3CCOCC3)cc(N3CCOCC3)n2)cc1	i	107	0.82	-47	x	138	1
65	Cc1cccc(NC(=S)N(Cc2cccc(Br)c2)CC2CCC(C(=O)O)CC2)c1 (configuration not stated)	i	103	1	x	x	x	-6
66	Cc1cccc(C(=O)OCC(=O)NCc2cccs2)c1	i	101	0.95	x	x	x	5
67	O=C(NCc1cccc(C(F)(F)F)c1)C1CC(c2ccccc2C(F)(F)F)=NO1 (configuration not stated)	i	96	0.66	x	x	x	x
68	CCC(CC)C1C(C#N)=C(N)Oc2cc(C)oc(=O)c21 (configuration not stated)	i	94	1	-11	0.4	71	-2
69	Cc1cccc(CSc2nn3c(=O)c(C)nnc3s2)c1	i	104	0.95	x	-0.6	x	3
70	CC1CC2(CCCCC2)Nc2ccc3ccccc3c21 (configuration not stated)	i	53	1.1	33	-1.4	77	-15
71	Cc1ccc(CNC(=O)Cc2cccs2)cc1	i	102	0.97	21	-2.6	122	-6
72	CCn1nnc(NC(=O)C(c2ccccc2)c2ccccc2)n1	i	108	0.91	x	x	x	6
73	O=C(Nc1ccc(N2CCN(c3ccc(C(F)(F)F)cn3)CC2)nc1)c1cccs1	i	99	0.99	x	x	x	x
74	CCOC(=O)CSc1cc(=O)n(CC)c2ccccc12	i	101	0.82	-19	-0.6	132	-2
75	Cc1ccc(-c2[nH]nc3c2C(c2ccoc2)C(C#N)=C(N)O3)cc1C (configuration not stated)	i	102	0.83	19	-1.1	110	2

A run of entries from further up, for reference:
no.	Compound	HSV augment	RGS16-Gao	HSV augment primary fold	Insulin prom inh	GALR2 ag	Insulin prom inh cell count	PKD1 kinase inh
51	N/C(=N\OC(=O)c1cccc(F)c1)c1ccccc1	x	99	x	29	-2.1	115	7
52	O=C(NNC(=O)c1ccc([N+](=O)[O-])cc1)c1ccncc1	i	95	0.85	17	-0.7	83	-4
53	Cc1cc([N+](=O)[O-])c(C)cc1-c1ccc(/C=N/NC(=O)c2cccnc2)o1	i	95	1.3	x	x	x	-5
54	CCOc1ccc(CCN2CN(C3CCCCC3)CNC2=S)cc1OCC	i	96	0.96	x	x	x	x
55	Fc1ccc(OCc2nnc(SCCN3CCOCC3)o2)cc1	i	102	1	12	-3.1	149	0

Next section
no.	Compound	HSV augment	RGS16-Gao	HSV augment primary fold	Insulin prom inh	GALR2 ag	Insulin prom inh cell count	PKD1 kinase inh
76	COC(=O)c1c(NC(=O)C2Cc3ccccc3C(=O)O2)sc2c1CCCC2 (configuration not stated)	i	99	0.93	x	-0.2	x	-5
77	CCCCn1c(=O)[nH]c(=O)c2c1nc(-c1ccc3ccccc3c1)n2CC	i	99	0.85	x	x	x	1
78	Cn1ncc(C#N)c1NC(=O)C1CC(c2c(F)cccc2Cl)=NO1 (configuration not stated)	i	106	0.93	9	-1.3	130	-1
79	O=C(Nc1cccc(Cl)c1)N1N=CCC1c1ccccc1 (configuration not stated)	i	109	0.94	x	x	x	x
80	CCOC(=O)N1CCN(c2cc(C)c([N+](=O)[O-])cc2F)CC1	i	97	0.96	29	x	145	-5
81	CN(Cc1ccccc1)C(=O)CSc1nc2ccccc2c(=O)n1Cc1ccco1	i	103	0.7	x	-0.2	x	1
82	COc1ccccc1/C=C/CN1CCOCC1	i	104	0.79	-18	-2.0	142	-7
83	CCOC(=O)C1=C(C)NC(=O)NC1c1ccccc1Cl (configuration not stated)	i	106	1	-88	-1.7	79	-6
